VDR inh – Inhibitors of the vitamin D receptor (VDR): qHTS. Potency, µM, inactives show max response, negative = inhibition, hits mostly inhibitors. Vitamin D3 receptor (Homo sapiens), P11473. 400,000 compounds, 0.93% hits. AID 504847, 2011. VDR-SRC2-3 peptide fluorescence polarization, 2 h; active = well fitted inhibition curve with a large enough effect; inconclusive = small, poorly fitted or top-dose-only effect, or another doubt; inactive = no such curve, though single readings can be large or run the other way; also: series mostly up to about 120 µM
Target sequence (P11473 whole entry, looked up): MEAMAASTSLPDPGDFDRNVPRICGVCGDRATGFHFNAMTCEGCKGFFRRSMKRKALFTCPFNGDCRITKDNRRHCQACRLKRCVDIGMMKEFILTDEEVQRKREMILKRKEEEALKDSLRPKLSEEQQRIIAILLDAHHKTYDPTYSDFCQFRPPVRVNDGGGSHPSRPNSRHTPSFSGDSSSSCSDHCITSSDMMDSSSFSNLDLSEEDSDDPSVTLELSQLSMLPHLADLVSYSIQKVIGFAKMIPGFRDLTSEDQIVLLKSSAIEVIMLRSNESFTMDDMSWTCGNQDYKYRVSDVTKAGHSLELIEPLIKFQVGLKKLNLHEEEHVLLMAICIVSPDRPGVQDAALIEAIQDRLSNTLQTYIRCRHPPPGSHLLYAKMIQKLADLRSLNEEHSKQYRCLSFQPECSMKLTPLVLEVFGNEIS
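Measured by FP: displacement of SRC2-3 coactivator peptide from VDR by library compounds, following a two-hour ambient incubation.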
* marks the source's active call; other numbers are inactive results; ? = inconclusive; & = joins results of further samples; [ ] = another dose, or the depositor's remark. % is scaled to controls: 0 for no effect and ±100 for the full control effect; potency is read from the fitted curve at half-maximal effect. The list is partial; the hit share may differ from the screen's.

SMILES	VDR inh
COc1cc(C2CC(=O)c3c([nH]c(C(=O)OCC4CCCCC4)c3C)C2)cc(OC)c1OC (stereo not given)	0%
COc1ccc(C(=O)NC23CC4CC(CC(C4)C2)C3)cc1	13%
Cc1ccc2[nH]c3c(=O)n(CCCN4CCN(C)CC4)cnc3c2c1	3%
O=C(CNC(=O)c1ccc(Cl)cc1)c1ccccc1	6%
COc1ccccc1/C=C/C(=O)NCC(=O)N/N=C/c1ccc(C)o1	3%
Cc1nc(NC(=O)c2ccco2)sc1-c1csc(Nc2ccc(Cl)cc2)n1	-10%
CC1CCC(NCC(=O)Nc2cccc(S(N)(=O)=O)c2)CC1 (stereo not given)	-2%
CN(C)c1ccc(N=Nc2ccccc2C(=O)OCC(=O)N(C)C2CCCCC2)cc1	-18%
Cc1nc(SCC(=O)CC(=O)OC(C)C)c(C#N)c(C)c1C	-17%
CCOc1c(C(=O)CC)cc2c(C)cc(=O)oc2c1C	-15%
S=C(NCCc1ccccn1)Nc1ccc(Cl)cc1	-4%
CCc1nc(NC(=O)Cc2csc(C)n2)sc1C(=O)OC	6%
O=C(OCC(=O)N1CCc2ccccc2C1)c1c(F)cccc1Cl	-6%
CCN(CC)CCN(C(=O)c1ccc([N+](=O)[O-])cc1)c1nc2c(OC)cccc2s1	-20%
CCn1cc(/C=N/O)c(C)n1	?
O=C(Nc1ccncc1)Nc1cccc(F)c1	-9%
CNc1nc(-c2ccccc2)[n+](-c2ccc(C)cc2)s1	?
N#Cc1c(/N=C\c2ccc(O)c([N+](=O)[O-])c2)sc2c1CCCC2	6%
CN(C)C=NC(=O)c1cc(C(=O)c2ccc(Cl)cc2)c[nH]1	-9%
CCCCC(=O)Nc1ccc(NC(=O)c2cnccn2)cn1	2%
Cc1ccccc1CCNC(=O)c1cc2ccccn2n1	4%
Cn1c(CN2CCN(C(=O)c3ccccc3)CC2)nc2cc([N+](=O)[O-])ccc21	10%
O=S(=O)(Nc1ccccc1C(F)(F)F)c1ccc(N2CCCCS2(=O)=O)cc1	1%
CCOC(=O)c1sc2nc(CC(=O)OC)nc(NCc3ccc(F)cc3)c2c1C	-1%
O=C(Cc1ccc(Br)cc1)Nc1ccc2[nH]ncc2c1	-12%
CC(C)c1nnc(NC(=O)Cc2ccccc2[N+](=O)[O-])s1	-14%
Cc1ccc(-n2nc3c(N4CCC(C(=O)NCCc5ccccc5C)CC4)nnc(C)c3c2C)cc1	-10%&-7%
CN(/N=C/c1ccc([N+](=O)[O-])o1)c1ccccc1	-23%
O=S(=O)(Nc1ccc(Cc2ccncc2)cc1)c1cccs1	2%
O=C(c1ccccc1F)N1CCN(c2cnn(-c3cccc(Cl)c3)c(=O)c2Cl)CC1	-15%
CCn1ncc(/C=N\NC(=O)c2csc3ccccc23)c1C	-2%
Cc1ccc(S(=O)(=O)N2CCN(C(=O)COC(=O)Cc3cccc(C(F)(F)F)c3)CC2)c(C)c1	-11%
COc1ccccc1C(=O)NC(=O)CSc1nncn1C	0%
CCc1ccc(NC(=O)COC(=O)/C=C/c2ccco2)cc1	-13%
CC1CCN(S(=O)(=O)c2ccc(Cl)s2)CC1	-15%
COc1ccc(-c2onc(C)c2C)cc1S(=O)(=O)N(C)Cc1ccccc1	15%
CC(C)(C)OC(=O)N1CCC(C(=O)O)CC1	5%
CC(Sc1nc(N)cc(=O)[nH]1)C(=O)Nc1nc2c(s1)CCCC2 (stereo not given)	11%
C=CC1=C(C(=O)O)N2C(=O)[C@@H](NC(=O)/C(=N\OCC(=O)O)c3csc(N)n3)[C@@H]2SC1	?
S=C(c1ccc2c(c1)OCO2)N1CCN(c2cccc(Cl)c2)CC1	?
O=C(CNC(=O)c1ccc(Cl)cc1)OCn1nnc2ccccc2c1=O	4%
C=CCn1c(SCC(N)=O)nc2nc3c(cc2c1=O)COC(C)(C)C3	2%
Cc1ccc2c(c1)N(C(=O)CCC(=O)NCCN1CCOCC1)CC(C)O2 (stereo not given)	-1%
Cc1ccc2nsnc2c1NC(=O)COc1ccccc1F	3%
Cc1ccc(CN2CCN(C/C(Cl)=C/c3ccccc3)CC2CCO)o1 (stereo not given)	7%
COC(=O)c1c(C)oc(C)c1S(=O)(=O)N(Cc1ccccc1)C(C)C	3%
Cc1c(Cl)cccc1NC(=O)C(C)n1c(=O)cc(-c2ccccc2)c2c(C)nn(C)c21 (stereo not given)	-2%
CCOc1ccc(CCNC(=O)c2c3c(nc4ccccc24)C(=O)N(C2CCCCC2)C3)cc1	1%
Cc1ccc(CCNC(=O)c2ccc(CS(=O)(=O)Cc3cccc(C)c3)o2)cc1	10%
Cc1cc(Cl)ccc1OCC(=O)N1CCCCC1	-1%
NC(=O)c1cc(S(=O)(=O)NCCCc2ccco2)cs1	?
CCOc1ccc(-c2nnc3sc(COc4ccccc4)nn23)cc1	3%
Cc1nnc(N2CCOCC2)c2ccccc12	9%
C/C(=N\NC(=S)NC1CCCCC1)c1cccs1	-11%
CCOc1cc(/C=N\Nc2ccc([N+](=O)[O-])cc2)ccc1OCC(=O)Nc1ccc(C)c(C)c1	8%
COCC(C)n1c(C)cc(C(=O)CSc2ncccn2)c1C (stereo not given)	13%
COc1ccc(NC(=O)c2cc(S(=O)(=O)N3CCOCC3)ccc2OC)cc1	4%
CC(C)CCNC(=O)NC(=O)CSc1nnc(-c2ccccc2Br)o1	-2%
COc1ccc(-c2noc(=O)n2Cc2ccccc2Cl)cc1	-12%
C=CCC(Nc1ccc(OC)cc1)C(=O)OCC (stereo not given)	2%

Going on with the list.
SMILES	VDR inh
O=C(Nc1ccc(Nc2ccccc2)cc1)c1ccco1	21%
CCOC(=O)c1cc(C#N)c(SCC(=O)O)[nH]c1=O	-15%
COc1ccc(-c2nnc3ccc(SCC(N)=O)nn23)cc1OC	-4%
CN(C(=O)CCN1C(=O)c2ccccc2C1=O)c1ccccc1	-11%
Cc1ccc(-n2ncc3c(=O)n(CC(=O)N(C)C)cnc32)cc1C	12%
O=C1CCCc2c1nc(-c1ccccc1)n2O	-6%
O=c1[nH]nc(N/N=C/c2ccccc2OC(F)F)c(=O)[nH]1	-9%
Cc1ccc(C(=O)N/C(=C\c2cn(S(=O)(=O)N(C)C)c3ccccc23)C(=O)NCCCN2CCOCC2)cc1	-16%
CCOP(=O)(OCC)C(O)c1cc(OC)c(OC)c(OC)c1 (stereo not given)	-12%
O=c1oc2ccccc2n1CCn1c2ccccc2c2nc3ccccc3nc21	6%
C=CCN(CC=C)C(=O)Nc1ccc2nc(C)sc2c1	6%
CN(C)/C=N/c1c(C#N)cnn1-c1ccccc1	1%
Cc1cc2nc(-c3cccc(NC(=O)c4ccc(Br)o4)c3C)oc2cc1C	6%
Cn1ncc(Br)c1C(=O)N1CCCC1	1%
CCC12CN3CC(CC)(CN(C1)C3c1ccc(OCc3ccccc3)cc1)C2=O (stereo not given)	1%

16 neighbouring records already listed, quoted:
SMILES	VDR inh
C=CCC(Nc1ccc(OC)cc1)C(=O)OCC (stereo not given)	2%
O=C(Nc1ccc(Nc2ccccc2)cc1)c1ccco1	21%
CCOC(=O)c1cc(C#N)c(SCC(=O)O)[nH]c1=O	-15%
COc1ccc(-c2nnc3ccc(SCC(N)=O)nn23)cc1OC	-4%
CN(C(=O)CCN1C(=O)c2ccccc2C1=O)c1ccccc1	-11%
Cc1ccc(-n2ncc3c(=O)n(CC(=O)N(C)C)cnc32)cc1C	12%
O=C1CCCc2c1nc(-c1ccccc1)n2O	-6%
O=c1[nH]nc(N/N=C/c2ccccc2OC(F)F)c(=O)[nH]1	-9%
Cc1ccc(C(=O)N/C(=C\c2cn(S(=O)(=O)N(C)C)c3ccccc23)C(=O)NCCCN2CCOCC2)cc1	-16%
CCOP(=O)(OCC)C(O)c1cc(OC)c(OC)c(OC)c1 (stereo not given)	-12%
O=c1oc2ccccc2n1CCn1c2ccccc2c2nc3ccccc3nc21	6%
C=CCN(CC=C)C(=O)Nc1ccc2nc(C)sc2c1	6%
CN(C)/C=N/c1c(C#N)cnn1-c1ccccc1	1%
Cc1cc2nc(-c3cccc(NC(=O)c4ccc(Br)o4)c3C)oc2cc1C	6%
Cn1ncc(Br)c1C(=O)N1CCCC1	1%
CCC12CN3CC(CC)(CN(C1)C3c1ccc(OCc3ccccc3)cc1)C2=O (stereo not given)	1%

(further entries)
SMILES	VDR inh
C#CCNC(=O)C(C)c1ncc(C(F)(F)F)cc1Cl (stereo not given)	?
O=C(O)c1c(C(=O)O)c(-c2ccc(F)cc2)n2c1CCC2	2%
Cc1c(N2C(=O)c3cccc4cccc(c34)C2=O)cnn1C	-6%
Cc1nn(-c2ccccc2)c2nc(C(F)F)cc(C(F)F)c12	2%
CC(C)C(=O)Nc1cccc(C(=O)Nc2ccc(S(=O)(=O)Nc3nccs3)cc2)c1	-3%
Cc1sc2ncn(CC(=O)N3CCCC(C)C3)c(=O)c2c1S(=O)(=O)N1CCCCC1 (stereo not given)	3%
O=C(c1cc(C(F)(F)F)cc(C(F)(F)F)c1)N1CCC2(CC1)CN(Cc1ccccc1)C2	-3%
CCc1c(C)nc2c(C#N)c(C)[nH]n2c1=O	-11%
CCC(CC)C1=NN2C(=N)/C(=C\c3cc(C)n(-c4cccc(C)c4)c3C)C(=O)N=C2S1	-4%
CCOC(=O)N1CCN(C(=O)c2ccc3c(=O)n(Cc4ccccc4)c(=S)[nH]c3c2)CC1	-10%
Cc1ccc(S(=O)(=O)N(CC2CO2)c2cc(Cl)ccc2Cl)cc1 (stereo not given)	-23%
Cc1ccccc1-c1ncc(CN2CCN(C3CCCC3)C(CCO)C2)cn1 (stereo not given)	1%
O=C1c2ccccc2C(=O)N1CC(O)CN1CCOCC1 (stereo not given)	-6%
Cc1ccc(CNC(=O)COc2cc(O)c3c(c2)OC(C)(C)CC3=O)cc1	-16%
Cc1cc2oc(C(=O)N(Cc3ccccc3)c3ccccn3)cc(=O)c2cc1Cl	-23%
CCOC(=O)c1cnc2ccc(OCC)cc2c1Nc1ccc(OCc2ccccc2Cl)cc1	3%
CC1CCCCN1CCn1c(=S)[nH]c2cc3c(cc2c1=O)OCO3 (stereo not given)	-6%
CCCCC1CC(CSc2ncn[nH]2)OC1=O (stereo not given)	-2%
COC(=O)c1ccccc1S(=O)(=O)N1CCC(C(=O)Nc2ccccc2N2CCOCC2)CC1	20%
COc1ccc(CCNC(=O)/C(C#N)=C/c2ccc(OCC(=O)NCC3CCCO3)cc2)cc1OC (stereo not given)	6%
Nc1c(S(=O)(=O)c2ccccc2)c2nc3ccccc3nc2n1Cc1ccco1	63%[activator]
COc1ccc2cc(C(C)c3nc4ccccc4c(=O)n3N)ccc2c1 (stereo not given)	-7%
CCc1c(C)nc2ncnn2c1N1CCC(C(=O)N2CCN(c3ccc(F)cc3)CC2)CC1	-1%
Cc1ccc2c(Cl)cc(Cl)c(OCC(=O)Nc3cccc(S(=O)(=O)N(C)C)c3)c2n1	15%
CC(=O)Nc1ccc(S(=O)(=O)N(C2=NCC(C)S2)c2ccccc2)cc1 (stereo not given)	-1%
Fc1cccc(Cl)c1CNc1ccc(N2CCCC2)cc1	50µM*
COc1ccc(NC(=O)NNC(=O)c2ccc(Cl)cc2Cl)cc1OC	-11%
CCOc1ccc(NC(=O)CN2C(=O)C3CCCN3C2=O)cc1 (stereo not given)	-29%
COc1ccc(NS(=O)(=O)c2cc(NC(=O)C3CC3)ccc2N2CCOCC2)cc1	5%
CC(C)C[C@H]1COCCS(=O)(=O)N1Cc1cccc(Cl)c1	-7%
CCN1CCN(C(c2ccccc2Cl)c2c(O)cc(C)n(Cc3ccco3)c2=O)CC1 (stereo not given)	-18%
CCc1nnc(NS(=O)(=O)c2ccc(NC(=O)c3cccc(Cl)c3)cc2)s1	-17%
COC(=O)c1ccc(NC(=O)Nc2ccc(F)cc2)cc1	14%
O=C(c1ccc(F)cc1F)N1CCCC(c2nc(-c3ccc(F)cc3)no2)C1 (stereo not given)	23%
O=C(c1ccccc1-n1cccc1)N1N=C(C(F)F)CC1(O)C(F)F (stereo not given)	-4%
CC(=O)Oc1ccc(C(=O)[C@H]2[C@H]3C(=O)N(c4ccc(C)cc4)C(=O)[C@H]3[C@@H]3C=CC=NN32)cc1	-17%
c1ccc(CSCCc2ccncc2)cc1	-2%
CC1CCN(C(=O)c2nc[nH]c2C(=O)O[C@H](C)c2ccccc2)CC1	-9%
Cc1nn(-c2ccccc2)c(OC(=O)c2cccc(Br)c2)c1S(=O)(=O)c1ccccc1	13%
COc1ccc2[nH]c(C(=O)N3CCNCC3)cc2c1OC	1%
Cc1cc(C(=O)N(C)C)sc1-c1ccccc1	4%
Cc1nc2ccc(NC(=O)Cc3ccc(Br)cc3)cc2s1	-16%
OCC[C@H]1C[C@H](O)[C@@H](O)[C@@]2(Cc3ccccc3CCO2)O1	1%
O=C(NNS(=O)(=O)c1ccc(F)cc1)c1cccc(O)c1	-1%
CN(CC1CCN(CCc2cccc(C(F)(F)F)c2)CC1)C(=O)c1ccc(F)cc1F	-8%
CN(C)S(=O)(=O)c1ccc(C(=O)NCc2ccco2)cc1	11%
CN(C)S(=O)(=O)c1cccc(C(=O)NCC2CCCCC2)c1	2%
CC1(C)NC(=O)N(CC(=O)N2CCN(S(=O)(=O)c3ccccc3C(F)(F)F)CC2)C1=O	-4%
Cn1c(=O)c2sccc2n2c(CCC(=O)N3CCN(c4ccc(F)cc4)CC3)nnc12	-3%
CC1(c2ccc(OC(F)F)cc2)NC(=O)N(CC(=O)Nc2ccc(OC(F)F)cc2)C1=O (stereo not given)	13%
COC(=O)[C@@H](Cc1ccccc1)NC(=O)CC[C@H]1O[C@@H](n2cc(C)c(=O)[nH]c2=O)C[C@@H]1O	-6%
O=C(CSc1ccc(-c2ccc(Br)cc2)nn1)N1CCOCC1	15%
COc1cc2c(cc1O)C(SC)=NC(C)(C)C2	-18%
CSc1ncccc1C(=O)NC1CCN(Cc2ccccc2)CC1	2%
COc1ccc(CCN2C(=O)CN(C3CCCCCC3)C(=O)C2c2ccc(Cl)cc2)cc1OC (stereo not given)	-1%
